Screens (PubChem BioAssay)
Menin MLL FP FL: menin-MLL binding inhibition, fluorescein peptide; 290,000 tested, under 10 active; Fluorescence polarization, fluorescein-MLL peptide displacement from menin; FP activity change, % at 61.4 µM; inconclusive = falling polarisation curve, or a change in total fluorescence; inactive = total fluorescence flat and polarisation flat or rising; no compound was filed as active; the % refers to the polarisation; negative = inhibition;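 further: % of control where 0% means no effect; inhibitors lower the polarisation; unlabelled MLL peptide was the positive control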
Sfp PPTase inh: blocks B. subtilis Sfp PPTase activity. Q9F4F7. Biochemical Sfp PPTase activity, qHTS. Potency, µM, inactives show max response, negative = inhibition, most hits filed as inhibitors. AID 1490. 310,000 tested, 3.5% active; active means well fitted inhibition curve with a large enough effect; inconclusive means small, poorly fitted or top-dose-only effect, or another doubt; inactive means no such curve, though single readings can be large or run the other way;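 further: the enzyme is Sfp with the accession as filed and its product quenches rhodamine fluorescence; potency means the concentration at half of the fitted maximal effect; 0% = enzyme reaction without inhibitor and -100% = no enzyme wells; top concentration of the series not given in the record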
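Sfp 15 nM + cpd, 15 min RT; start w/ rhodamine-CoA 5 uM, BHQ-2-YbbR 12.5 uM (final); 50 mM Hepes pH 7.6, 10 mM MgCl2, 0.01% NP-40, 0.01% BSA; read 525/598 nm at 0 and 30 min.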
* marks the source's active call; other numbers are inactive results; u = inconclusive; x = not tested or not shown; & = joins results of further samples; ! = a repeat was not active; [ ] = remark or other dose.

Second line of a record – Sfp PPTase inh | Menin MLL FP FL
Oc1ccc2c3c1OC1C(O)CC[C@]4(O)C(C2)N(CC2CCC2)CC[C@]314 (stereo not given in full)
→ 20.0% | 0.4
C[C@H]1C/C=C/[C@@H]2[C@@H]3O[C@]3(C)[C@@H](C)[C@H]3[C@H](Cc4ccccc4)NC(=O)[C@]32OC(=O)O/C=C/[C@](C)(O)C1=O
→ -0.4% | -2.7
CC(=O)Oc1c2c(c(CC=C(C)C)c3c1C(=O)C1=CC4CC5C(C)(C)OC(C/C=C(\C)C(=O)O)(C4=O)[C@]15O3)OC(C)(CCC=C(C)C)C=C2 (stereo not given in full)
→ 25.1µM* | 10.4
O=C(Oc1ccccc1)N1CCC2(CCN(Cc3nccs3)CC2)CC1
→ 11.7% | -3.7
COc1ccc2c(c1OC)C(=O)O[C@H]2[C@H]1c2cc3c(cc2CCN1C)OCO3
→ -0.8% | -1.2[24.8 µM]
C[C@H]1CN(C2CCC(C#N)(c3ccc(F)cc3)CC2)CC[C@@]1(C(=O)O)c1ccccc1 (stereo not given in full)
→ 11.4% | 2.7[24.8 µM]
C#CCOS(=O)OC1CCCCC1Oc1ccc(C(C)(C)C)cc1 (stereo not given)
→ 4.2% | 1.5
N#Cc1cc(Br)c(O)c(Br)c1
→ 9.6% | u
CCCN(CCC)[C@@H]1CCc2ccc(O)cc2C1
→ 8.6% | u
COc1ccccc1-c1[se]c2ccccc2c1I
→ -3.4% | -2.8
COc1ccc(NC(=O)N2CC3(CCN(C(=O)Oc4ccccc4)CC3)C2)cc1
→ 10.5% | 0.9
CC1C(=O)OC2C1CC[C@@]1(C)C=CC(=O)[C@@]3(C)O[C@@]213 (stereo not given in full)
→ 5.7% | 3.8
CS(=O)(=O)N1CCC2(CC1)CN(Cc1ccncc1)C2
→ -1.6% | -5.6
CC[N+](C)(CC)CCOC(=O)C(O)(c1ccccc1)c1ccccc1
→ 15.6% | 3.1
C=C(C)CN1CC[C@@]23c4c5ccc(O)c4O[C@H]2c2[nH]c4ccccc4c2C[C@]3(O)[C@@H]1C5
→ 7.0% | u
CC(C)NCC(O)c1ccc(N)c(C#N)c1 (stereo not given)
→ 30.9%&25.4%[activator] | -2.2
CC/C=C\C/C=C\C/C=C\C/C=C\C/C=C\CCCC(=O)NCCc1ccc(O)c(O)c1
→ -12.8% | 2.9
COC1CC(=C(c2cccs2)c2cccs2)C[N+](C)(C)C1 (stereo not given)
→ 20.0% | 0.4
CCCC(C)C1(CC)C(=O)N=C(S)NC1=O (stereo not given)
→ 19.0% | -0.8
COc1ccc(CC2NCCc3cc(OC)c(OC)cc32)cc1OC (stereo not given)
→ 8.9% | -9.8
COP(=S)(OC)Oc1ccc([N+](=O)[O-])cc1
→ -3.2% | 2.7
CCCCCCCCCCCCCC(=O)O[C@@H]1[C@@H](C)[C@@]2(O)[C@@H](C=C(CO)C[C@]3(O)C(=O)C(C)=C[C@@H]23)[C@@H]2C(C)(C)[C@]12OC(C)=O
→ 9.8% | -2.4
CC(C)C(O)(C(=O)OC[C@@H]1CC[N+]2([O-])CCCC12)C(C)O (stereo not given in full)
→ 11.1% | -4.6
CNC[C@H](O)c1ccc(O)c(OC)c1
→ 9.7% | -1.8[24.8 µM]
CCCCOC(=O)N(C)SN(C)C(=O)Oc1cccc2c1OC(C)(C)C2
→ -12.9% | -1.1
O=[N+]([O-])c1cc(I)c(O)c(I)c1
→ 10.7% | 7.4
Cc1cccc(C(=O)O)c1O
→ u | -6.4
C=C1CC[C@H](O)C/C1=C/C=C1\CCC[C@]2(C)[C@@H]([C@H](C)CCCC(C)C)CC[C@@H]12
→ 16.7%&-10.0% | 4.9&13.3
COP(N)(=O)SC (stereo not given)
→ -7.9% | -5.9
C[C@@H]1CC[C@H]2[C@@H](C)C(=O)O[C@@H]3OC4(C)CC[C@@H]1[C@]32OO4
→ -9.9% | -0.1
N#CN=C1SCCN1Cc1ccc(Cl)nc1
→ 7.1% | u
CCCC/C=C/[C@@H](NP(=O)(c1ccccc1)c1ccccc1)c1ccccc1OC
→ u | -0.6
Nc1ccccc1C(=O)O
→ 8.6% | 4.7
CC(C)(C)OC(=O)c1ncn2c1[C@@H]1CCCN1C(=O)c1c(Br)cccc1-2
→ 3.7%&15.3% | -8.6&-1.7
CC(C)(O)C(Cl)(Cl)Cl
→ -11.9%&19.6% | 4.1&-0.5
COC(=O)C12CC3=CC(CC3=O)Cc3ccccc3[C@@H]1CNC2=O (stereo not given in full)
→ 24.6% | -1.8
CC(N)[C@@H](O)c1ccccc1 (stereo not given in full)
→ 15.2% | 2.2
CC(=O)[C@H]1CC[C@H]2[C@@H]3CC[C@H]4C[C@](C)(O)CC[C@]4(C)[C@H]3CC[C@]12C
→ 2.9% | -3.1
O=C(O)COc1cc(Cl)c(Cl)cc1Cl
→ 21.3% | -1.3
O=C(OCCN1CCCCC1)C(O)(c1ccccc1)c1ccccc1
→ -0.1% | -0.9
C[C@]12CC[C@@H]3[C@@H](CCC4=CC(=O)CC[C@@H]43)[C@@H]1CC[C@@H]2OC(=O)CCc1ccccc1
→ u | 3.3
CN1C[C@@H](NS(=O)(=O)N(C)C)C[C@@H]2c3cccc4c3c(cn4C)C[C@H]21
→ 19.4% | -6.7
CC(C)=CC1C(C(=O)OCc2cccc(Oc3ccccc3)c2)C1(C)C (stereo not given)
→ 24.3% | 1.6
COC(=O)C12CC3=CCC4C(=O)N(c5ccccc5)C(=O)C4C3Cc3ccccc3[C@@H]1CNC2=O (stereo not given in full)
→ -15.0% | 3.1
NCC[C@H](NC(=O)[C@@H](N)CCCN=C(N)N[N+](=O)[O-])C(N)=O
→ u | 1.9
COc1cc2c(cc1OC)[C@@H]1C(=O)c3ccc(O)c(CC=C(C)C)c3OC1CO2 (stereo not given in full)
→ 0.5% | -0.4
O=[N+]([O-])C(Br)(CO)CO
→ 8.91µM* | 3.1
C=C1C([C@@]2(C)C(OC(C)=O)CC(=O)O[C@@](C)(COC(C)=O)C2CC(=O)OC)C(OC=O)C(OC(=O)C(OC(C)=O)C(C)CC)[C@]2(C)C(c3ccoc3)CC(=O)C12O (stereo not given in full)
→ 10.7% | -0.4
CCOc1cc(OP(=S)(OC)OC)nc(CC)n1
→ u | -6.5
CC(C)[C@@H]1CN[C@H](C(=O)O)[C@@H]1CC(=O)O
→ -38.3% | x
O=C(CCCN1CCC2(CC1)C(=O)N(Cc1cccc(F)c1)CN2c1ccccc1)c1ccc(F)cc1
→ 70.8µM* | u
CC(C)C1C(=O)N2CCCC2[C@]2(O)O[C@@](NC(=O)[C@@H]3C=C4c5cccc6[nH]cc(c56)C[C@H]4N(C)C3)(C(C)C)C(=O)N12 (stereo not given in full)
→ -15.8% | u
CCCCC/C=C\C/C=C\C/C=C\C/C=C\CCCC(=O)Nc1ccc(O)cc1C
→ -0.8%&8.8% | -0.3&3.0
CCCCCC(O)C1C(=O)OC(C)C(O)\C=C/C=C\C=C/C=C\C=C(\C)C(O)C(O)C(O)CC(O)CC(O)CC(O)CC(O)CC1O (stereo not given)
→ 9.3% | 0.2
CO[C@H]1[C@@H](O)[C@@H](C)O[C@H](O[C@H]2[C@H](Oc3cccc4c(O)c5c(=O)oc6ccc(C)c7c(=O)oc(c34)c5c67)O[C@H](C)[C@H](O)[C@@H]2O)[C@@H]1O
→ -22.5% | u
C=C/C(=C/C(=O)C[C@H](C)C[C@@H](C)CC[C@H](O)[C@H](C)C(=O)C[C@@H](O)[C@H](C)[C@@H](C)OC(=O)C[C@@H](O)C1=C(C)C(=O)OC1=O)CC
→ -9.4% | 11.0[11.7 µM]
COc1ccc(C(=O)OC2C[C@H]3CC[C@@H](C2)N3C)cc1OC (stereo not given in full)
→ 14.8% | 5.5[24.8 µM]
CN(C)[C@@H](Cc1ccccc1)c1ccccc1
→ 24.0% | 3.5
CC(C)(c1ccc(OC[C@@H]2CO2)cc1)c1ccc(OC[C@H]2CO2)cc1
→ -26.3% | u
c1ccc2c(c1)OC[C@@H](C1=NCCN1)O2
→ 1.9%&10.4% | u

(cont.)
Second line of a record – Sfp PPTase inh | Menin MLL FP FL
CNC1[C@@H](O)C(OC2C(N)C[C@H](N)[C@@H](O[C@@H]3OC(C(C)O)C(O)C(O)C3N)C2O)OC[C@]1(C)O (stereo not given in full)
→ -9.9% | 0.4
O=CN1CC2CC(C1)c1cccc(=O)n1C2 (stereo not given)
→ 24.0% | u
CC(=O)OCC(=O)[C@@H]1CC[C@H]2[C@H]3CC[C@H]4C[C@@H](O)CC[C@]4(C)[C@@H]3C(=O)C[C@@]12C
→ u | -5.1[24.8 µM]
CCN1C[C@@]2(OC(=O)c3ccccc3NC(C)=O)CCC(OC)[C@@]34C5CC6C(OC)C[C@@](O)(C(CC23)[C@@H]14)C5(O)C6OC (stereo not given in full)
→ 13.2% | 0.2
C=C(C)C1CCC(C)=CC1c1c(O)cc(O)cc1CCCCC (stereo not given)
→ -1.5% | 4.0
CCCCC/C=C\C[C@@H](/C=C/C=C\C/C=C\CCCC(=O)O)OO
→ 20.5%&10.5% | 1.1
O=C(N[C@@H]1CN2CCC1CC2)c1cc(Cl)cc2[nH]cnc12
→ 2.2% | -1.9
CC1/C=C/C=C/CC/C=C/C=C/C=C/C=C/C(OC2OC(C)C(O)C(N)C2O)CC2O[C@](O)(CC(O)C(O)CCC(O)CC(O)CC(O)CC(=O)OC(C)C(C)C1O)CC(O)C2C(=O)O (stereo not given in full)
→ -5.0% | 0.8
CC(=O)[C@H]1CC[C@H]2C3CC[C@H]4C[C@](C)(O)CC[C@]4(C)C3CC[C@]12C (stereo not given in full)
→ 2.4% | -3.2
COCC(=O)N1CCC2(CCCN(Cc3ccncc3)C2)CC1
→ -4.0% | -0.7
Cc1c(C(=O)c2ccc3ccccc3c2)c2cccc3c2n1[C@H](CN1CCOCC1)CO3
→ -3.3% | u
C[C@]12CC[C@H](OS(=O)(=O)O)CC1=CCC1C2CC[C@]2(C)C(=O)CC[C@@H]12 (stereo not given in full)
→ -4.7% | -7.0
CC(C)=CC1C(C(=O)OCc2coc(Cc3ccccc3)c2)C1(C)C (stereo not given)
→ -2.8% | 1.6
CN1CCc2cc3c(cc2[C@@H]1[C@@H]1OC(=O)c2c1ccc1c2OCO1)OCO3
→ 3.2% | 1.3[24.8 µM]
c1csc(CN2CC[C@@]3(CCCNC3)C2)n1
→ -13.0% | 1.2
CN1CCc2cc(Cl)c(O)cc2[C@H]2c3ccccc3CC[C@@H]21
→ 24.9% | -4.3
CC1OC(OC2C(O)CC(OC3C(O)CC(OC4CCC5(C)C(CCC6C5CCC5(C)C(C7=CC(=O)OC7)CCC65O)C4)OC3C)OC2C)CC(O)C1O (stereo not given)
→ 24.3% | -1.5
c1cncc(CNc2cc(-c3ccc4c(c3)OCO4)ncn2)c1
→ u | -2.1
O=C(NC(=O)c1c(F)cccc1F)Nc1ccc(Cl)cc1
→ 6.4% | 1.0
CN1CCN(c2ncc3ncc(=O)n(C)c3n2)CC1
→ -9.0% | -4.2
O=C(O)c1ccccc1-c1c2cc(Br)c(=O)cc-2oc2[c]([Hg])c(O)c(Br)cc12
→ 2µM*! | u
c1ccc(N2CC[C@@]3(CCCNC3)C2)cc1
→ u | 0.0
CCc1ccc(C(=O)NN(C(=O)c2cc(C)cc(C)c2)C(C)(C)C)cc1
→ 22.5% | -1.0
COC(=O)C1=CO[C@@H](C)[C@@H]2CN3CC[C@]4(C(=O)Nc5c4ccc(OC)c5OC)[C@H]3C[C@H]12
→ 2.2% | -1.6
CC1CC[C@@]2(NC1)OC1CC3C4CC[C@@H]5CC(O)CC[C@@]5(C)C4CC[C@]3(C)C1C2C (stereo not given in full)
→ 6.4% | 1.8
Cc1ncsc1CCCl
→ 79.4µM* | -0.6&124.5
CC[C@]1(C2=NCCN2)Cc2ccccc2O1
→ 3.6% | -3.1
O=C(O)c1nn(Cc2ccc(Cl)c(Cl)c2)c2ccccc12
→ 7.7% | 1.3
C=C(C)c1cc2cc(C(C)=O)c(O)cc2o1
→ -18.5%&-20.9% | 0.8&-5.1
CC[C@@]1(O)C(=O)OCc2c1cc1n(c2=O)Cc2cc3cc(O)ccc3nc2-1
→ -6.4%&1.0% | u
CC[C@]1(O)CC(O[C@@H]2CC(N(C)C)C(O)C(C)O2)c2c(cc3c(c2O)C(=O)c2c(O)cccc2C3=O)C1C(=O)OC (stereo not given in full)
→ -4.1% | u
[S]=[Sb][S][Sb]=[S]
→ 28.3% | 4.6
CC(C)(C)CC(C)(C)c1ccc(O)cc1
→ 28.1% | -2.7
NCCNC[C@@H](N)CCCN=C(N)N[N+](=O)[O-]
→ 10.7% | 0.9
CC1(C)C(=O)C=C[C@@]2(C)C1CC(O)[C@]1(C)C2CC[C@@]2(C)C(c3ccoc3)OC(=O)C3O[C@]312 (stereo not given in full)
→ -9.7% | 0.3
CCC[C@@H]1CC2=CC(=O)CC[C@]2(C)[C@@H]2CC[C@@]3(C)[C@H](CC[C@]3(O)CCC(=O)O)[C@H]12
→ 34.8%[activator] | u

Entries above that contain an NH in an aromatic ring (three):
Second line of a record – Sfp PPTase inh | Menin MLL FP FL
C=C(C)CN1CC[C@@]23c4c5ccc(O)c4O[C@H]2c2[nH]c4ccccc4c2C[C@]3(O)[C@@H]1C5
→ 7.0% | u
CC(C)C1C(=O)N2CCCC2[C@]2(O)O[C@@](NC(=O)[C@@H]3C=C4c5cccc6[nH]cc(c56)C[C@H]4N(C)C3)(C(C)C)C(=O)N12 (stereo not given in full)
→ -15.8% | u
O=C(N[C@@H]1CN2CCC1CC2)c1cc(Cl)cc2[nH]cnc12
→ 2.2% | -1.9

Not all compounds are listed (hit frequency here may not be typical).
